Assay outcomes (PubChem BioAssay)
ClpP mod: qHTS Assay for Activators of ClpP. actives 1.9% (n = 340,000). purified B. subtilis ClpP, FRET peptide cleavage, 20 min. ATP-dependent Clp protease proteolytic subunit (Bacillus subtilis (strain 168)), P80244. AID 651965, 2013. Potency, µM (doses to about 57.5 µM), for inactives: top-dose activity change, negative = active; active = well fitted falling curve with a large enough effect; inconclusive = small, poorly fitted or top-dose-only effect; inactive = no such curve, though single readings can be large or run the other way; further: potency means the concentration at half of the fitted maximal effect; the source files actives as falling curves though it sought activators and does not explain the sign; nearly all actives have a fitted effect of over 65% in size; many hits overshoot -100%
Target sequence (P80244 whole entry, looked up): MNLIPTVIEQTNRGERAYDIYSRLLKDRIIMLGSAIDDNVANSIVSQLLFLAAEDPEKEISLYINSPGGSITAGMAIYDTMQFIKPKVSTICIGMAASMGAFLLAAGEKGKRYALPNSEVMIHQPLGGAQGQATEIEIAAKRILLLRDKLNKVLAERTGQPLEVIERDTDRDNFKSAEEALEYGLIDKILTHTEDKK
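FRET quenching reversal measured ClpP activation: 10 microg/mL B. subtilis ClpP at pH 8 with the FRET-FV decapeptide, read at 430 nm after 320 nm excitation. The 20-min minus 0-min signal was scaled between DMSO/no-enzyme wells and ADEP (5.8 microM final).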
gsp antagonist: qHTS for Antagonists of gsp, the Etiologic Mutation Responsible for Fibrous Dysplasia/McCune-Albright Syndrome: qHTS; gsp-mutant cells, cAMP HTRF, 30 min; control for the full effect not named in the record; Potency, µM (highest dose often 76.9 µM), for the others: top-dose activity change, negative = inhibition, hits mostly inhibitors; actives 0.4% (n = 340,000); active = falling curve of any shape with a large fitted effect; inconclusive = falling curve, mostly with a smaller effect; inactive = flat or rising curve; cell line not stated here;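 further: intracellular cAMP measured with PDE inhibitor Ro 20-1724 present during compound exposure; potency means the concentration at half of the fitted maximal effect; on the % scale 0 is the no-effect control and ±100 the full control effect; nearly all actives have a fitted effect of over 65% in size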
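Cells, 2000/well, grown 16–24 h in DMEM 10% FBS with 0.5 mg/ml G418, then compounds plus […] (300 uM addition stock), 30 min at 37C. cAMP read by HTRF (cAMP-d2 and anti-cAMP antibody-K in lysis buffer) after 30 min RT.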
D2 ag: Beta-Arrestin HTS for Positive Allosteric Modulators of the Human D2 Dopamine Receptor: Agonists; D(2) dopamine receptor (Homo sapiens), P14416; DiscoveRx PathHunter D2 beta-arrestin, luminescence, 90 min; 100% = 57 uM dopamine signal; activation, % (test concentration not listed); actives 0.084% (n = 360,000); AID 624465, 2012; in the data active = activation above about 40%; inconclusive = about 15% to 40%; inactive = below about 15%; further: compound concentration not given in the record; the text of the record calls up to 30% inactive
Target sequence (P14416 whole entry, looked up): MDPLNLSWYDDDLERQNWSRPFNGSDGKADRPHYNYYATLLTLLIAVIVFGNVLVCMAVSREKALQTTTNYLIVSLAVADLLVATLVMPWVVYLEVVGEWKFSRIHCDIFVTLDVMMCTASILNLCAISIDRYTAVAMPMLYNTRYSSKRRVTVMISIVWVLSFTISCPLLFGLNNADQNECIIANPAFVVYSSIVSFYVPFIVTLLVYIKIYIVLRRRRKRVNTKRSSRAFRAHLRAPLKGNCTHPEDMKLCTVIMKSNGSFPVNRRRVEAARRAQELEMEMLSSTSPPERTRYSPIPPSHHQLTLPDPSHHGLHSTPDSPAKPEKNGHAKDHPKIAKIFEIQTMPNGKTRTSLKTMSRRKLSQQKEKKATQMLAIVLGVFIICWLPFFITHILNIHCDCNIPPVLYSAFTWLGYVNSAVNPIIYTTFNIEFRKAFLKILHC
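Agonist mode: compounds alone added to overnight-plated D2 PathHunter cells for 90 min at 37 C, with 57 uM final dopamine (EC100) defining full response. Beta-arrestin recruitment detected by chemiluminescent reagent, read after 1 h at ambient temperature.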
Sfp PPTase inh: qHTS Assay for Inhibitors of Bacillus subtilis Sfp phosphopantetheinyl transferase (PPTase) | AID 1490, 2009 | actives 3.5% (n = 310,000) | Potency, µM, without a hit: max response, negative = inhibition, hits mostly inhibitors | Biochemical Sfp PPTase activity, qHTS; active means well fitted inhibition curve with a large enough effect; inconclusive means small, poorly fitted or top-dose-only effect, or another doubt; inactive means no such curve, though single readings can be large or run the other way;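 further: the enzyme is Sfp with the accession as filed and its product quenches rhodamine fluorescence; potency means the concentration at half of the fitted maximal effect; 0% = enzyme reaction without inhibitor and -100% = no enzyme wells; top concentration of the series not given in the record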
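Reaction rates are the 30-min fluorescence difference (ex 525, em 598 nm) in wells containing 15 nM Sfp, 5 uM rhodamine-CoA and 12.5 uM BHQ-2-YbbR at pH 7.6 with 10 mM MgCl2.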
PINK1 modulator: A Quantitative High throughput Screen to Identify Chemical Modulators of PINK1 Expression; PINK1 immunofluorescence, high-content cytometry, 24 h; Potency, µM (series often up to 76.6 µM), without a hit: at the highest dose activation (PINK1 increase), usual class: activators; actives 0.2% (n = 410,000); AID 624263, 2012; active = well fitted activation curve with a large enough effect; inconclusive = small, poorly fitted or top-dose-only effect; inactive = flat fitted curve, though single readings scatter; cell line not stated here;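 further: potency means the concentration at half of the fitted maximal effect; % of control where 0% means no effect; nearly all actives have a fitted effect of over 65% in size; a mitochondrial uncoupler was the plate control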
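Measures PINK1 amount and localization on or inside mitochondria by immunofluorescence. Stable cells get compounds at 5 concentrations for 24 hours before fixation and staining; CCCP controls included.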
gsp ag: qHTS for Agonist of gsp, the Etiologic Mutation Responsible for Fibrous Dysplasia/McCune-Albright Syndrome: qHTS; gsp mutant cells, cAMP HTRF, 30 min; control for the full effect not named in the record; Potency, µM (titrated, usually from 76.9 µM), for inactives: top-dose activation (cAMP increase), hits mostly activators; actives 0.13% (n = 340,000); active = well fitted activation curve with a large enough effect; inconclusive = small, poorly fitted or top-dose-only effect, or another doubt; inactive = no such curve, though single readings can be large or run the other way; cell line not stated here;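 further: phosphodiesterase inhibitor Ro 20-1724 added with compounds to block cAMP breakdown; potency means the concentration at half of the fitted maximal effect; nearly all actives have a fitted effect of over 60% in size; about a fifth of the inactives were tested at one dose only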
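Cells in DMEM/10% FBS with G418 were pretreated with compounds in DMSO plus […] (300 uM stock) for 30 min at 37C. cAMP was measured by HTRF (cAMP-d2 plus anti-cAMP antibody-K) after 30 min at room temperature.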
Menin-MLL FL inh: qHTS Assay for Inhibitors Targeting the Menin-MLL Interaction in MLL Related Leukemias: Competition With Fluorescein Labeled MLL-derived Peptide; Fluorescence polarization, fluorescein-MLL peptide displacement from menin; 290,000 tested, under 10 active; FP activity change, % at 61.4 µM; inconclusive = falling polarisation curve, or a change in total fluorescence; inactive = total fluorescence flat and polarisation flat or rising; no compound was filed as active; the % refers to the polarisation; negative = inhibition;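 further: % of control where 0% means no effect; inhibitors lower the polarisation; unlabelled MLL peptide was the positive control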
* hit, by the source's call; ? = inconclusive; nt = not tested or not shown; [ ] = remark or other dose.

SMILES	ClpP mod	gsp antagonist	D2 ag	Sfp PPTase inh	PINK1 modulator	gsp ag	Menin-MLL FL inh
COc1ccc(CCNC(=O)c2cnc(Cl)c(Cl)c2)cc1	0.8%	-30.2%	-2.5	9.0%	0.6%	5.1%[15.4 µM]	0.6
Cc1ccc(S(=O)(=O)c2cc3c(=O)n4ccccc4nc3n(C)c2=N)cc1	?	2.6%	-4.1	-9.4%	4.0%	-7.3%	2.0
Cc1ccc(C(=O)NNC(=O)CNc2cccc(Cl)c2)cc1	0.0%	9.7%	-4.2	7.5%	2.0%	4.0%	0.3
CC(=O)NC(CCCN1C(=O)c2ccccc2C1=O)c1nnn(C)n1 (centres undefined)	-1.8%	3.0%	0.5	10.4%	0.7%	-23.5%	3.0
Cc1ccc(S(=O)(=O)Oc2ccc3ccc(O)cc3c2)cc1	2.2%	-2.4%	3.4	7.3%	13.2%	0.0%	7.0
CCOC(=O)N1CCN(S(=O)(=O)c2ccc(C)cc2)C1	-0.9%	4.1%	-10.9	10.5%	0.0%	-4.5%	2.6
CC(C)CCNC(=O)C1CCN(S(=O)(=O)c2ccc3nc4c(c(C(=O)O)c3c2)CCCCC4)CC1	0.6%	4.5%	-2.7	20.4%	0.1%	?	-5.6
CCc1ccccc1-n1ncc(C(=O)Nc2ccccc2OC)c1C	1.3%	-22.8%	2.2	12.8%	1.4%	8.4%[15.4 µM]	-4.8
COc1cccc(OC)c1OCCOCCn1cnc2ccccc2c1=O	-0.9%	-0.4%	-0.9	12.1%	4.7%[38.3 µM]	-31.3%[inhibitor]	-1.4
Cc1ccc(NC(=O)N2CCCn3c(SCC(=O)c4ccccc4)nnc32)cc1	-1.0%	5.7%	-4.7	23.4%	6.2%	?	1.9
COc1ccc(NC(=O)C(c2ccc(C)cc2)N(C)C(=O)c2cnccn2)cc1 (centres undefined)	0.6%	-1.4%	-3.4	1.9%	-1.4%	14.0%	-0.4
O=C(CCC1CCCCC1)NCCS(=O)(=O)N1CCN(c2ccc(F)cc2)CC1	nt	7.2%	-4.8	nt	5.2%	11.1%[15.4 µM]	nt
COc1ccc(CSc2nnc(NC(C)=O)s2)cc1[N+](=O)[O-]	nt	3.5%	-3.6	1.3%	3.0%	-9.5%[15.4 µM]	1.3
COc1ccc2nc(SCC(=O)Nc3ccccc3C)[nH]c2c1	-0.1%	-2.2%	-3.4	0.6%	4.8%[38.3 µM]	21.3%	-2.6
CC1CCCCN1C(=O)Nc1ccccc1Cl (centres undefined)	0.5%	3.0%	0.5	-13.7%	3.0%	11.1%	-0.1
COc1ccc(-c2csc3ncn(-c4cccc(C)c4)c(=O)c23)cc1OC	-1.4%	-9.8%	-5.8	-12.4%	-0.5%	19.3%	-1.2
CCCCn1nc2cc(C(=O)NCC3CC3)ccc2c1OCC	3.9%	6.2%	4.5	14.1%	0.6%	-13.3%	?
CCOC(=O)c1c(C)[nH]sc1=S	-1.9%	11.2%	-1.7	?	-0.6%	35.8%[15.4 µM]	1.5
O=C(NCC1CCCO1)C1CCN(S(=O)(=O)c2cccc3nonc23)CC1 (centres undefined)	1.8%	4.7%	-2.0	21.1%	3.1%	-16.8%	4.8
Cc1ccc(-n2cnn(-c3ccc([N+](=O)[O-])cc3[N+](=O)[O-])c2=O)cc1	nt	1.6%	11.4	-0.4%	-0.6%	?	?
COCCNC(=S)N(CCc1c(C)[nH]c2ccc(F)cc12)Cc1cccs1	-0.5%	-26.9%	-0.5	17.3%	?	-2.0%	2.3
COc1ccccc1CNC(=O)C1CCN(S(=O)(=O)c2ccc3c(c2)NC(=O)CO3)CC1	-1.0%	-0.6%	3.3	13.8%	2.0%	-2.8%	nt
CC(C)CC(CO)N1CCN(C(=O)c2ccc(Cl)c(Cl)c2)CCC1=O (centres undefined)	-0.5%	2.4%	-3.2	nt	-1.5%	nt	nt
C=CCNC(C(=O)Nc1cccc(OC)c1)c1ccccc1 (centres undefined)	nt	nt	-0.9	-9.7%	0.0%	-14.1%[15.4 µM]	1.1
COc1ccc(C2=NOC(C(=O)Nc3ccc(C)cc3)C2)cc1OC (centres undefined)	-1.9%	-6.2%	-0.9	2.7%	-1.4%[38.3 µM]	8.3%	-0.4
More structures
SMILES	ClpP mod	gsp antagonist	D2 ag	Sfp PPTase inh	PINK1 modulator	gsp ag	Menin-MLL FL inh
CN(C)CCCn1c(NC(=O)C2CCCCC2)nc2ccccc21	-0.2%	8.7%	0.8	4.6%	-1.6%[38.3 µM]	-0.1%	-1.5
Cc1ccc(NS(=O)(=O)c2ccccc2)c2c1CC(C)(C)O2	0.0%	0.3%	-5.6	-7.2%	-1.1%	1.0%	-0.6
Cc1ccc(CC2S/C(=C(/C#N)C(=O)NCc3ccco3)N(c3ccccc3)C2=O)cc1 (centres undefined)	0.8%	-0.9%	0.7	-12.8%	20.5%[38.3 µM]	-14.4%	11.3
CCN(CC)c1ccc(/C=N/N2CCOCC2)c(O)c1	2.4%	18.7%	-4.5	-13.0%	2.3%	2.7%[15.4 µM]	6.7
COc1cccc(C(=O)NC23CC4CC(CC(C4)C2)C3)c1	nt	-8.4%	-3.9	11.9%	1.4%	-15.8%	-9.0
O=C(O)c1ccccc1C(=O)NCc1ccc2c(c1)OCO2	-2.2%	1.2%	-4.4	10.2%	-0.5%	-3.6%	-4.2
CC(=O)OC1C([N+]2(C)CCCCC2)C[C@H]2C3CC[C@H]4C[C@H](OC(C)=O)C([N+]5(C)CCCCC5)CC4(C)[C@H]3CCC12C (some centres undefined)	1.5%	-1.1%	-4.5	nt	1.0%	nt	nt
O=C(N/N=C/c1ccc(OC(F)F)cc1OC(F)F)c1ccc(Br)cc1	-0.4%	-4.6%	-2.2	14.4%	2.8%	-56.4%[inhibitor]	-2.1
O=C(Nc1nccs1)[C@@H]1CCCN1S(=O)(=O)c1ccc(Cl)cc1	-0.9%	0.1%	-3.0	nt	4.1%	0.5%[15.4 µM]	nt
COc1ccccc1CNC(=O)c1sccc1-c1ccccc1	nt	-8.3%	1.6	5.4%	-1.7%	12.1%	2.6
Clc1ccc(OCc2nn3c(-c4ccco4)nnc3s2)cc1	0.2%	3.6%	-1.1	?	2.7%	5.9%	1.4
CC(C(=O)NCc1ccccn1)c1ccc([N+](=O)[O-])cc1 (centres undefined)	nt	5.4%	6.3	26.8%	1.8%	22.8%	-0.2
Cc1ccc(OCCCC(=O)Nc2ccc(Cl)c(S(=O)(=O)N3CCOCC3)c2)cc1	-1.6%	-17.1%	2.3	nt	2.5%	?	nt
Cc1nnc(SCC(=O)Nc2sc3c(c2C(N)=O)CCCC3)[nH]c1=O	0.1%	8.8%	-4.4	17.9%	2.9%	-36.5%[inhibitor]	6.0
CCCn1c(SCC(=O)c2ccc3c(c2)OCCO3)nnc1-c1ccco1	-12.7%	-22.0%	-6.2	-13.4%	-2.9%	22.3%	-1.1
O=C(Nc1ccccc1C(=O)NCCCN1CCOCC1)c1ccc(Cl)cc1	1.0%	0.0%	-6.0	-3.4%	2.3%	-27.2%	4.2
O=C(Nc1ccc(S(=O)(=O)NC2=NCCCCC2)cc1)c1ccc(Cl)cc1Cl	-1.2%	12.4%	-3.4	nt	-2.4%	-7.3%	nt
CC1CCCN(C(=O)C2CCN(CC(C)c3ccccc3)CC2)C1 (centres undefined)	-4.3%	1.4%	-0.4	8.1%	0.3%	-18.7%	-2.3
c1ccc2nc3ccccc3cc2c1	4.6%	nt	nt	6.9%	nt	nt	-3.8
COc1ccc(OC)c(/C=C2\Oc3cc(OCC(=O)N4CC(O)C[C@H]4C(=O)O)ccc3C2=O)c1 (some centres undefined)	-3.0%	6.8%	-5.1	6.3%	-0.3%	nt	?
COC(=O)[C@H]1[C@H](c2ccccc2)[C@H](C(=O)OC)O[C@H]1c1ccccc1	nt	-0.4%	-5.3	nt	0.6%	-9.2%[15.4 µM]	nt
CCOc1ccc(N(CC(=O)N2CCC(Cc3ccccc3)CC2)S(C)(=O)=O)cc1	nt	?	1.3	?	-0.6%	-3.9%[15.4 µM]	-1.1
O=C(CCC(=O)c1cccs1)NCc1ccccc1	1.5%	10.7%	-4.8	-12.9%	-1.2%	?	0.5
O=C(/C=C/c1cc(Br)ccc1F)OCC(=O)N1CCCC1	-0.6%	11.7%	-1.3	nt	1.2%	28.4%	nt
O=C(Nc1ccccc1Br)c1ccc(N2CCCC2=O)cc1	?	-0.7%	1.0	nt	1.7%	3.1%	nt
Going on with the list:
SMILES	ClpP mod	gsp antagonist	D2 ag	Sfp PPTase inh	PINK1 modulator	gsp ag	Menin-MLL FL inh
NS(=O)(=O)c1ccc(CCN2C(=O)CCC2=O)cc1	nt	11.2%	-1.4	15.6%	-0.3%	-20.1%	8.3
COc1ccc(NC(=S)Nc2ccc3nc(C)c(C)nc3c2)cc1	0.3%	-0.6%	-0.9	-17.1%	0.4%	1.8%	-5.7
COc1ccc(NC(=O)N2CCCC2C(=O)NCC2CCCCC2)cc1 (centres undefined)	nt	8.3%	-1.7	9.1%	-1.6%	6.6%	-1.7
O=C(N/N=C/c1ccc(Cl)cc1)c1cc2c(s1)-c1ccccc1CC2	28.2µM*	0.1%	-4.0	17.3%	14.9%	-3.7%	1.1
CCn1cc(C(=O)O)c(=O)c2cc(F)c(N3CCN(C(=S)Nc4ccc(OC)cc4)CC3)cc21	nt	-8.8%	-18.1	-9.1%	-0.7%	-12.6%[15.4 µM]	-0.2
NS(=O)(=O)c1ccc(CNC(=O)c2cc(-c3cccnc3)nc3ccc(Br)cc23)cc1	-5.7%	?	0.4	1.7%	12.3%	?	1.6
CCN(CC)c1ccc(C(=O)NNC(=O)Cn2c(=O)cnc3ccccc32)cc1	?	nt	-3.5	nt	-0.4%	-25.8%	nt
Cc1c(Cl)cccc1NC(=S)NCc1ccccc1	-0.3%	-1.5%	-3.8	nt	-0.7%	-0.4%	nt
CCOc1cc(C2NC(=O)NC(c3ccccc3)=C2C(C)=O)ccc1OC(C)=O (centres undefined)	0.7%	5.3%	-3.6	-18.6%	1.5%	21.9%	-0.9
C/C=C/C=C/C(=O)OCC(=O)Nc1ccc(Cl)cc1	-1.4%	8.8%	-3.7	12.1%	-0.4%	-2.3%[15.4 µM]	0.9
